Six1-Eya2 inh = inhibitors of human Six1/Eya2 interaction. Q15475+O00167. AlphaScreen GST-Six1/His-Eya2 binding, biochemical; stronger effect = lower value; control for the full effect not named in the record. activity change, % (test concentration not listed). 0.56% of 360,000 active. AID 651725; in the data active = activity change below about -65%; inconclusive = about -30% to -65%; inactive = above about -30%; further: on the % scale 0 is the no-effect control and ±100 the full control effect; compound concentration not given in the record
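Six1/Eya2 binding was read as AlphaScreen signal after compounds were pinned into GST-Six1 plus His-tagged Eya2 (5X stock 250/500 nM) in pH 8.0 Tris/NaCl/TCEP buffer, beads added, then incubated 1 h, 37 C, dark.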
TRPML1 inh = blocks the human TRPML1 channel; activity change, negative = inhibition, % (concentration not given with the values); Q9GZU1; TRPML1-inducible cells, Ca2+ dye fluorescence, FDSS; stronger effect = lower value; inhibition of EC80 agonist-evoked calcium signal; 0.02% of 390,000 active; AID 624415; in the data active means activity change below about -50%; inconclusive means about -30% to -50%; inactive means above about -30%;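 further: stimulus is agonist 54-4 at its EC80 concentration; on the % scale 0 is the no-effect control and ±100 the full control effect; compound concentration not given in the record; the text of the record puts the active cut at -80%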
Target sequence (Q9GZU1 whole entry, looked up): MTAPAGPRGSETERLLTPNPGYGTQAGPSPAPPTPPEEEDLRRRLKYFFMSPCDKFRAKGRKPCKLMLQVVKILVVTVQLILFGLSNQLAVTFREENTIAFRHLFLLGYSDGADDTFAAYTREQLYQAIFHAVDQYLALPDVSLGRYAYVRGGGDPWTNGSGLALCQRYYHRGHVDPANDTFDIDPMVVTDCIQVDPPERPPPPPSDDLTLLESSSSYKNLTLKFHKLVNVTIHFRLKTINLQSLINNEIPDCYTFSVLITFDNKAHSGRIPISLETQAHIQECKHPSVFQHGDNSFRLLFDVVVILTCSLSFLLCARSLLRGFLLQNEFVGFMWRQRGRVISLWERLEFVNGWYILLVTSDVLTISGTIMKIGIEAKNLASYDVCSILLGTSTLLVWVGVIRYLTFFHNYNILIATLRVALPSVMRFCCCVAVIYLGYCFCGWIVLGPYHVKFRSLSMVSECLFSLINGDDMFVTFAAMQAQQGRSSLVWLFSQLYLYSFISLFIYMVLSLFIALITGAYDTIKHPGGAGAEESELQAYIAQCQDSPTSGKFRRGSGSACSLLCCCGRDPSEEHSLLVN
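Tet-induced TRPML1-DL cells loaded with Ca8 no-wash calcium dye were read kinetically on FDSS. Compound addition was followed by EC80 agonist 54-4 (4 uM final); inhibition was read over 110 s.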
PINK1 expr mod = changes PINK1 expression | PINK1 immunofluorescence, high-content cytometry, 24 h | Potency, µM (top dose mostly 76.6 µM), inactives show at the highest dose activation (PINK1 increase), hits mostly activators | 0.2% of 410,000 active; active = well fitted activation curve with a large enough effect; inconclusive = small, poorly fitted or top-dose-only effect; inactive = flat fitted curve, though single readings scatter; cell line not stated here;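 further: potency means the concentration at half of the fitted maximal effect; % of control where 0% means no effect; nearly all actives have a fitted effect of over 65% in size; a mitochondrial uncoupler was the plate control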
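Fluorescence from anti-PINK1 antibody, together with nuclear and cell stains, was scanned on a laser-scanning cytometer. Before staining, stable-line cells were incubated 24 hours with compounds at 5 concentrations; primary antibody 12 h at 10 degrees C.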
D2 PAM = human D2 receptor positive allosteric modulation; P14416; DiscoveRx D2 beta-arrestin cells, luminescence, 90 min; 100% = 57 uM dopamine signal; potentiation, % (no concentration beside the values); 0.23% of 360,000 active; AID 624464; active = potentiation of 50% or more; inconclusive = 30% to 50%; inactive = 30% or less;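 further: compound concentration not given in the record; tested on top of an EC20 dose of dopamine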
Target sequence (P14416 whole entry, looked up): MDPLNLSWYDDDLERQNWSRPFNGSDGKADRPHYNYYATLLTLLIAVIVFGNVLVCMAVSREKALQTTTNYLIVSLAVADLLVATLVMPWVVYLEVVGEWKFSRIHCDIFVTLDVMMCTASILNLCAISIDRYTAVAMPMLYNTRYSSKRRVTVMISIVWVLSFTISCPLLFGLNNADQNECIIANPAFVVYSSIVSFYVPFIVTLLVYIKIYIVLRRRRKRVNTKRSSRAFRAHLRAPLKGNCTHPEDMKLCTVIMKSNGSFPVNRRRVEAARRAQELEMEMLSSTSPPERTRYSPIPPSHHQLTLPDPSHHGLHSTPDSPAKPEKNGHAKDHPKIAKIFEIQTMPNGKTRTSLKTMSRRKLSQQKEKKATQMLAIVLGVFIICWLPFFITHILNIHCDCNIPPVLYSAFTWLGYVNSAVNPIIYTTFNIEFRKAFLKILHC
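PathHunter beta-arrestin assay in DiscoveRx D2 cells. Compounds were added with an EC20 of dopamine (50 nM final) for 90 min at 37 deg C. Luminescence was read 1 h after detection reagent, with 57 uM dopamine as the EC100 control.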
TRPML1 agonist = activates the human TRPML1 channel; activation, % (test concentration not listed); TRPML1-expressing cells, Ca2+ dye fluorescence, FDSS; host cell line not named in the record; reference of the full effect not given here; AID 624414; Q9GZU1; 0.12% of 410,000 active; in the data active = activation above about 50%; inconclusive = about 30% to 50%; inactive = below about 30%; further: 0% is about no effect; the text of the record puts the active cut at 80%
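Agonist activity was taken from a 110 s kinetic Ca2+ dye read on the FDSS after pinning compounds onto TRPML1-DL cells. The cells were seeded at 1,500/well with Tet inducer, incubated about 16 h, then dye-loaded at room temperature.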
D2 agonist = agonists of human D2 dopamine receptor (beta-arrestin). 0.084% of 360,000 active. activation, % (test concentration not listed). AID 624465. DiscoveRx PathHunter D2 beta-arrestin, luminescence, 90 min; 100% = 57 uM dopamine signal. P14416; in the data active = activation above about 40%; inconclusive = about 15% to 40%; inactive = below about 15%; further: compound concentration not given in the record; the text of the record calls up to 30% inactive
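Agonist mode: compounds alone added to overnight-plated D2 PathHunter cells for 90 min at 37 C, with 57 uM final dopamine (EC100) defining full response. Beta-arrestin recruitment detected by chemiluminescent reagent, read after 1 h at ambient temperature.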
An asterisk follows results filed as active; ? = inconclusive; . = not tested or not shown; & = joins results of further samples; [ ] = dose if it differs, or a comment.

SMILES	Six1-Eya2 inh	TRPML1 inh	PINK1 expr mod	D2 PAM	TRPML1 agonist	D2 agonist
Cc1ccc(S(=O)(=O)N2CC3(O)CN(C(=O)OC(C)C)N(C(=O)OC(C)C)CC3(OC(=O)Nc3c(C)noc3C)C2)cc1 (stereo unspecified)	4	13	-0.2%	4	0.1	-5.1
O=C(NCC1CCCO1)c1ccc(NC(=O)C2CCCCC2C(=O)O)cc1 (stereo unspecified)	-7	4	-1.9%	-18	1.6	-0.8
Cc1cc(C(=O)NNC(=S)NCc2ccco2)nn1C	-22	-16	1.5%	7	3.0	2.6
CCOC(=O)N1CCN(C(=O)CCc2ccc(S(=O)(=O)NCC(C)C)cc2)CC1	-3	-4	0.2%	2	1.4	-5.3
CCOC(=O)c1c(CNCCN(CC)CC)n(C)c2cc(Br)c(OC)cc12	-21	8	11%	-22	1.1	-3.7
CN(C)N(C(=O)c1cc(-c2cccs2)nn1-c1ccccc1)C1CCS(=O)(=O)C1 (stereo unspecified)	-7	0	-1.8%	-3	0.2	-6.0
COc1ccc(C2=NN(C)C(=NCc3ccccc3)SC2)cc1	14	47	0.1%[38.3 µM]	-6	1.6	-1.2
CCOC(=O)c1c(C)n(C)c2ccc(OC(C)C(=O)OC)cc12 (stereo unspecified)	1	-8	-0.1%	-10	3.3	-1.9
COc1ccc(C(CNC(=O)Nc2ccc(Cl)cc2)N2CCN(C)CC2)cc1 (stereo unspecified)	-1	1	0.3%	-37	0.1	-7.5
N#C/C(=C\c1ccccc1)c1nc(-c2cc3cc(Br)ccc3oc2=O)cs1	.	-6	3.6%	.	-0.4	.
CC(=O)NC(Nc1nc2c(s1)CCCC2)(C(F)(F)F)C(F)(F)F	5	4	0.3%	-17	-0.5	0.1
COc1ccc(C[C@H]2CN3C(=NC[C@H]3Cc3ccccc3)N2CCNC(=O)c2ccc(C)c(Br)c2)cc1	-5	7	-1.3%	-23	0.9	-0.5
CCc1cc(=O)n2[nH]c(-c3ccccc3)c(-c3ccccc3)c2n1	-3	2	-2.5%	-10	0.9	-3.3
O=C(CSc1ncnc2c1oc1ccccc12)OCc1ccccc1	44	-2	4.2%[38.3 µM]	-15	1.4	-0.9
O=C(O)CCCn1cc(NC(=O)COc2cccc(Cl)c2)cn1	-15	10	-2.4%	23	-0.2	7.1
COc1ccc(CCNC(=O)COC(=O)CNS(=O)(=O)c2ccc(SC)c([N+](=O)[O-])c2)cc1	-4	-1	3.4%	2	0.0	2.8
Cc1nnc(SCC(=O)NNC(=O)CC#N)[nH]c1=O	0	5	0.3%	-2	0.7	0.0
COc1ccc(CNc2nc(-c3cccnc3)nn2C(=O)c2cccs2)cc1	1	34	6.9%	4	0.3	-4.0
COc1ccc(CNc2nc(SCC(=O)NCc3ccco3)nc3ccccc23)cc1	-9	16	3.6%[38.3 µM]	-6	0.3	-0.1
Cc1nn(C(C)(C)C)c(C)c1/C=N/OC(=O)Nc1ccc(Cl)c(Cl)c1	19	-24	13%	0	0.8	2.5
CCN(CC)C(=O)c1ccc(C(=O)c2ccccc2)cc1	4	10	.	-3	0.0	-0.9
CCN(CC)CCC(=O)NC(C)(C)Cc1ccc(O)cc1	-3	7	0.9%	-16	0.0	0.4
COc1ccc(S(=O)(=O)N2CCC(C(=O)N[C@@H](C)C(=O)NC3CCCC3)CC2)cc1	2	15	-1.0%	-7	-0.1	2.8
Cc1cccc(N(CC(=O)NCc2ccco2)C(=O)CNS(=O)(=O)c2ccc(F)cc2)c1	-2	-1	-3.0%	2	0.8	2.1
CN(c1ccc(OC(=O)CN2C(=O)NC3(CCCC3)C2=O)cc1)S(=O)(=O)c1ccccc1	8	-5	1.5%	-14	-0.1	-5.6
Cc1ccc(-n2nc(C)cc2NC(=O)CC#N)cc1	0	45	-0.5%	-6	0.8	3.4
COC(=O)COc1cccc(NC(=O)COc2ccccc2)c1	12	7	-1.5%	-5	0.2	-0.2
O=C(Cc1ccccc1)NC1CCN(S(=O)(=O)c2ccc(C(=O)O)cc2)CC1	1	-2	16%[38.3 µM]	-2	0.4	-0.8
O=S(=O)(c1ccc(S(=O)(=O)N(Cc2ccco2)Cc2ccccc2Cl)cc1)N1CCCC1	0	-6	6.3%	-33	-0.4	-2.4
COc1ccc(Nc2nc(N)nc(CSc3nccc(C)n3)n2)cc1	-7	11	2.4%	1	0.1	-4.1
COc1ccc(C(=O)Oc2ccc(C)cc2)cc1S(=O)(=O)N1CCOCC1	-12	15	1.3%	-4	-0.6	2.8
COc1ccc2nc3cc(Cl)ccc3c(Nc3ccc(O)c(CN4CCN(C)CC4)c3)c2c1	?	3	-1.3%	?	-0.1	?
Cc1ccc(-n2ncc3c(N(C)Cc4ccccc4)ncnc32)cc1	.	53	0.3%	.	2.5	.
N#Cc1ccccc1CSc1nc2ccsc2c(=O)n1Cc1ccccn1	22	-10	-0.5%	-1	1.5	-4.7
Cc1ccc(NC(=O)CN(C)S(=O)(=O)c2ccc3[nH]c4c(c3c2)CCCC4)c(Cl)c1	.	24	0.7%	.	2.9	.
CNc1c(NS(=O)(=O)c2ccc(Br)cc2)c(=O)oc2ccccc12	0	2	17%	-4	-0.8	-0.4
CCOC(=O)[C@@H]1[C@H]2COc3ccc(Br)cc3[C@@H]2N2C(=O)N(c3ccc(F)cc3)C(=O)[C@@]12C	4	-2	-0.8%	-3	0.0	-3.6
CCc1nnc(NC(=O)Cc2c[nH]c3ccccc23)s1	-8	21	-0.2%	-2	3.2	9.4
CC1CCCCC1NC(=O)CO/N=C/c1ccc(OC(F)F)cc1 (stereo unspecified)	0	-13	-0.5%	-10	0.3	-4.4
C/C(=N\NC(=O)c1ccc(O)cc1)c1ccc2c(c1)Nc1ccccc1S2	-9	9	-2.6%	20	1.3	?
O=S(=O)(Nc1nc2ccccc2[nH]1)c1ccc(Cl)cc1	-1	16	5.4%[38.3 µM]	-4	0.1	-1.1
OC(c1ccccc1)(c1nc(-c2cccc(C(F)(F)F)c2)cs1)C(F)(F)F (stereo unspecified)	4	.	-1.1%	-6	1.2	8.8
CCCCNC(=O)C1c2ccccc2OCC(=O)N1C1CC1 (stereo unspecified)	-1	.	1.8%	.	-0.3	.
O=C(NC1CCCc2ccccc21)C1CCCC1 (stereo unspecified)	7	27	2.2%	-9	1.0	-4.1
O=C1[C@H](Cc2ccccc2)NCCCC[C@@H](c2ccc(Cl)cc2)N1Cc1ccccc1	-10	72	-1.4%	-4	0.3&0.2	1.0
Clc1ccccc1-c1nn2c(Cn3cnc4ccccc43)nnc2s1	0	2	0.4%	6	0.7	-4.5
Cc1cc(NC(CC(C)C)C(=O)O)nc(Cc2ccccc2)n1 (stereo unspecified)	2	3	3.0%	10	-1.0	-3.1
O=C(Cn1cnc2sc(-c3ccccc3)cc2c1=O)N1CCOCC1	2	3	1.3%[38.3 µM]	-1	-0.3	-1.3
CC(=O)N1CCN(S(=O)(=O)c2cccc(C(=O)OCC(=O)NC(=O)c3cccn3C)c2)CC1	-10	2	0.3%	-4	0.7	0.7
CCc1ccc2[nH]c(=O)c(CN(CCCN3CCOCC3)C(=O)Nc3cccc(Cl)c3)cc2c1	0	17	-1.7%	-9	0.0	1.4

Next section:
SMILES	Six1-Eya2 inh	TRPML1 inh	PINK1 expr mod	D2 PAM	TRPML1 agonist	D2 agonist
CCN(CC)CCNc1nc(-c2ccccc2)c2c(c1C#N)CC(C)(C)OC2	1	18	-0.4%	-8	1.0	-2.2
C[C@H]1CN(C2CCCCC2)C(=O)[C@@H]1CC(=O)Nc1ccc(Br)cc1	3	.	-0.5%	.	.	0.9
CCCn1nc(NC(=O)c2ccncc2)c2cc3ccccc3nc21	3	-6	3.4%	-13	-0.1	-1.9
CC(=O)N1c2ccc(S(=O)(=O)NCCC(=O)Nc3ccc(Cl)cc3)cc2CC1C (stereo unspecified)	-2	-6	2.2%	-12	-0.2	0.3
Cc1sc2ncnc(SCC(=O)N3CCCC3)c2c1C	-6	2	1.3%	-9	-1.1	-1.9
O=S1(=O)CC(N2CCN(CCO)CC2)CN1Cc1cn(Cc2ccc(F)cc2)nn1 (stereo unspecified)	6	.	1.2%	.	-0.3	.
CNS(=O)(=O)c1cc(Nc2ncnc3sccc23)ccc1C	-3	.	2.1%	-6	.	-1.7
COc1ccccc1NC(=O)c1oc2ccc(C)cc2c1C	10	-9	11%	-6	2.0	-4.0
COc1ccc(Cl)cc1NC(=O)CCN1C(=O)c2ccccc2Sc2ncccc21	.	29	1.1%	.	0.6	.
Cc1cc(C(=O)Nc2ccc(F)cc2C)n(-c2ccccc2)n1	1	26	1.8%	-5	-0.4	-2.2

A draw from above in order of SMILES length, low to high.
SMILES	Six1-Eya2 inh	TRPML1 inh	PINK1 expr mod	D2 PAM	TRPML1 agonist	D2 agonist
COc1ccccc1NC(=O)c1oc2ccc(C)cc2c1C	10	-9	11%	-6	2.0	-4.0
CNS(=O)(=O)c1cc(Nc2ncnc3sccc23)ccc1C	-3	.	2.1%	-6	.	-1.7
CCCn1nc(NC(=O)c2ccncc2)c2cc3ccccc3nc21	3	-6	3.4%	-13	-0.1	-1.9

Look-ups from the entries so far:
PINK1 expr mod with Cc1sc2ncnc(SCC(=O)N3CCCC3)c2c1C stands at 1.3%
TRPML1 agonist with CC(=O)N1c2ccc(S(=O)(=O)NCCC(=O)Nc3ccc(Cl)cc3)cc2CC1C (stereo unspecified) stands at -0.2
Six1-Eya2 inh with O=S1(=O)CC(N2CCN(CCO)CC2)CN1Cc1cn(Cc2ccc(F)cc2)nn1 (stereo unspecified) stands at 6

Going on with the list:
SMILES	Six1-Eya2 inh	TRPML1 inh	PINK1 expr mod	D2 PAM	TRPML1 agonist	D2 agonist
N#Cc1ccc(Cl)cc1NC(=O)CN1C(=O)C(=O)N(CCC2=CCCCC2)C1=O	-3	44	0.9%	-12	-0.4	-0.9
COc1cc(Cl)c(S(=O)(=O)N2CC(C)OC(C)C2)cc1Cl (stereo unspecified)	3	-2	1.8%	-19	1.5	-1.5
CCCSC(=O)N(CC)CC(=O)Nc1c(CC)cccc1CC	0	18	1.6%	-6	-0.7	-1.8
O=S(=O)(O)c1ccc(O)c2cc(Nc3ccccc3)ccc12	-73*	0	1.0%	8	-0.8	12
O=C(CCN1CCCCC1)Nc1cccc(Cl)c1	9	-10	1.2%	-25	-0.7	-1.7
CC(=O)c1cccc(-n2nnnc2SCC(=O)Nc2cccc(NC(=O)c3ccco3)c2)c1	-1	7	-1.7%	-21	2.0	-3.7
CCOc1ccc(S(=O)(=O)n2nc(C)c(S(=O)(=O)N3CCOCC3)c2C)cc1	2	-5	0.3%	-8	1.0	-3.5
Cc1oc(-c2cccc(Cl)c2)nc1CN1CCC(C(=O)NCCCN2CCCC2=O)CC1	-2	-2	1.0%	-9	-0.1	2.2
COc1ccc(CCNC(=S)NNC(=O)c2c(Br)c(C)nn2C)cc1OC	-21	5	-1.7%	5	0.6	6.6
COC(=O)C1=C(CS(=O)(=O)c2ccccc2)NC(=O)NC1c1ccc(OC)c(OC)c1 (stereo unspecified)	3	8	-0.4%	-9	0.8	-2.8
CCCCNC(=O)C1CC(=O)N(CCc2ccccc2)C1 (stereo unspecified)	6	3	-0.1%	-8	-0.8	-0.4

Compound activity (PubChem)
